From PubChem BioAssay
2A firefly: lowers the firefly signal of an FMDV 2A StopGo reporter | HEK cells with a luciferase reporter of 2A StopGo recoding | Potency, µM (titrated, usually from 57.5 µM), for the others: top-dose signal change, negative = less light | actives 0.23% (n = 120,000); active = well fitted falling curve with a large enough effect; inconclusive = small, poorly fitted or top-dose-only effect; inactive = no such curve, though single readings can be large or run the other way; note: nearly all actives have a fitted effect of over 60% in size; overnight with compound
StopGo RLuc: lowers the Renilla signal of an FMDV 2A StopGo reporter. HEK cells with a luciferase reporter of 2A StopGo recoding. Potency, µM (doses to about 57.5 µM), for inactives: at the top dose signal change, negative = less light. actives 0.32% (n = 120,000); active means well fitted falling curve with a large enough effect; inconclusive means small, poorly fitted or top-dose-only effect; inactive means no such curve, though single readings can be large or run the other way; note: nearly all actives have a fitted effect of over 55% in size; overnight with compound
The depositor's hits bear a star; u = inconclusive; & = joins results of further samples; [ ] = dose if it differs, or a comment. % is set by controls: 0 for no effect and ±100 for the full control effect; potency is the fitted concentration of half-maximal effect. Only part of the results is shown; count on the stated rates, not on these rows.

SMILES	2A firefly	StopGo RLuc
COc1ccc(CS(=O)(=O)C(C)C(=O)N(C)Cc2ccccc2)cc1F (centres undefined)	23%	21%
O=C(NCCCc1ccccc1)c1cc(-c2ccncc2)nc2ccccc12	-1%	50%[activator]
COc1cc(CNc2ccc3[nH]c(=O)[nH]c3c2)ccc1OCc1ccccc1F	48%[activator]	u
Cc1cccc(Oc2cnn(-c3ccc(C(F)(F)F)cn3)c(=O)c2Cl)c1C	62%[activator]	-1%
Cc1oc(-c2ccccc2)nc1Cn1c(SCc2cccc(C(F)(F)F)c2)nc2cccnc21	u	u
CC(C)(C)NS(=O)(=O)c1cccc(NC(=O)c2ccccc2)c1	-18%	103%[activator]
CCOc1ccccc1NC(=O)c1ccc2c(c1)CCN2S(=O)(=O)c1ccc(C)cc1	-5%	9%
CCC(C(=O)Nc1cc(Cl)c(OC)cc1OC)n1nc(-c2cc(C)ccc2C)ccc1=O (centres undefined)	7%	41%[activator]
O=C(COc1ccc2oc3c(c2c1)CCCC3)Nc1ccc(Cl)cc1	-14%	-19%
O=C(NCc1ccc(F)cc1)C1CCCN(c2ccc3nnc(C(F)(F)F)n3n2)C1 (centres undefined)	5%	1%
Cc1cccnc1NC(=O)COc1ccc2c(=O)c(Oc3ccccc3)c(C)oc2c1	-3%	1%
O=C(N/N=C/c1ccc(-c2ccccc2)cc1)C1CC1	245%[activator]	32%[activator]
Cc1ccc2c(c1)-c1c(cnn1CC(=O)N1CCN(c3cc(Cl)ccc3C)CC1)CO2	-12%	-13%
CC(C)CNC(=O)Cn1ccc2cc(Cl)ccc21	7%	15%
O=C(COC(=O)c1cccc(NC(=O)c2cccs2)c1)c1ccccc1	0%	-14%
CCOc1ccccc1Nc1sc(C(=O)c2ccccc2)c(N)c1C(=O)Nc1ccccc1	-1%	2%
Cn1cc(S(=O)(=O)c2ccccc2)c(=O)c2cc(F)c(N3CCN(c4ccccc4)CC3)cc21	21%	20%
Clc1cccc(Cl)c1C=Nc1ccc(-c2ccc(N=Cc3c(Cl)cccc3Cl)cc2)cc1	109%[activator]	21%
Cc1ccc(NS(=O)(=O)c2ccc(Cl)c(C(=O)O)c2)cc1Cl	10%	5%
CCCN(C(=O)Nc1cn(CC(C)C)c(=O)c2ccccc12)c1ccc(F)cc1	19%	-5%
CCCNC(=O)CSc1nnc(-c2cccnc2)o1	-3%	-5%
COc1ccc(CN(Cc2cccc(C#N)c2)C2CC2)cc1	12%	2%
Cc1ccc(NC(=O)c2nc(S(C)(=O)=O)ncc2N(Cc2ccco2)Cc2cccs2)cc1C	-26%	158%[activator]
N#Cc1cc2c(=O)n3ccccc3nc2n(-c2nnc(SCc3ccc(F)cc3)s2)c1=O	-8%	-7%
CC(C)(C)c1ccc(C(=O)O)s1	18%	-6%[1.06 µM]
COc1ccc(S(=O)(=O)Nc2nc3ccccc3nc2Nc2ccc(Br)cc2)cc1	7%	70%[activator]
Cc1ccc2nc(-c3ccncc3)cc(C(=O)NCc3cccnc3)c2c1	26%	16%
O=C(Nc1nc2n(n1)C(c1ccccc1)C=C(c1ccc(Cl)cc1)N2)c1ccco1 (centres undefined)	18%	29%
O=C(Nc1ccccc1F)c1oc2ccccc2c1NC(=O)C12CC3CC(CC(C3)C1)C2	0%	-6%
O=C(/C=C/c1ccccc1)c1cc2cc(Br)ccc2oc1=O	-10%	-8%
N#Cc1ccc(OCc2noc(-c3ccc(Cl)cc3)n2)c(Cl)c1	-2%	-4%
Cc1ccc(-c2cc(C(=O)N(Cc3ccco3)Cc3cccs3)no2)cc1	0%	148%[activator]
CCC(C(=O)NCc1ccccc1)n1ncn2c(cc3occc32)c1=O (centres undefined)	-10%	-7%
Cc1cccc(NN)c1C	-2%	-12%[1.06 µM]
CN(C)C(=O)c1ccc2c(c1)N(CC(=O)NCc1ccccc1Cl)C(=O)C1CCCCN21 (centres undefined)	-8%	30%[activator]
Cc1cc(C=O)cc(C)c1O	14%	-9%[1.06 µM]
C[C@H]1O[C@@H](O[C@H]2[C@@H](O)C[C@H](O[C@H]3[C@@H](O)C[C@H](O[C@H]4CC[C@@]5(C)[C@H](CC[C@@H]6[C@@H]5CC[C@]5(C)[C@@H](C7=CC(=O)OC7)CC[C@]65O)C4)O[C@@H]3C)O[C@@H]2C)C[C@H](O)[C@@H]1O	u	-74%
O=C(NCc1ccccc1Cl)c1ccc2c(c1)ncn2-c1cccc(F)c1	20%	95%[activator]
O=C(O)CNC(=O)C12CC3CC(CC(C3)C1)C2	-2%	-1%
O=C(c1ccc2c(c1)OCCO2)C1CCN(C(=O)c2ccccc2)CC1	-18%	-30%
Cc1ccc(-c2cc(C(=O)NCC(c3ccccc3)N(C)C)c3ccccc3n2)o1 (centres undefined)	21%	9%
CC(C)NC(=O)c1cccc2c1CCCN2CC(=O)NC1CCCC1	-1%	-10%
N#Cc1ccc(CSc2ccc3c(c2)OCCO3)cc1	204%[activator]	17%
CCOc1ccc(CNC(=O)c2ncoc2-c2cccc(Cl)c2)cc1OC	4%	1%
CCCc1ccc(C(NC(=O)Cn2ccc(=O)[nH]c2=O)c2cccs2)cc1 (centres undefined)	-9%	-12%
CCCCNC(=O)C1CCC(CNS(=O)(=O)c2ccc(NC(C)=O)cc2)CC1 (centres undefined)	-16%	-1%
Cc1ccc2c(COC(=O)COc3ccccc3)cc(=O)oc2c1C	9%	-4%
CCOC(=O)CSC(C(=O)NC(N)=O)C(C)C (centres undefined)	6%	-10%
CCOC(=O)C1=C(C)Nc2ncnn2C1c1ccc(O)cc1 (centres undefined)	0%	3%
Nc1ccc(C(=O)OC2CCCCC2)cc1	111%[activator]	50%[activator]
Cc1ccccc1/C=C1\CCc2ccccc2C1=O	0%	36%[activator]
CC(=O)N1CCN(c2csc3ccc(Br)cc3c2=O)CC1	23%	7%
Cc1ccc2nc(Nc3nc(CSc4ncccn4)cc(=O)[nH]3)nc(C)c2c1	7%	-1%
COc1ccc(NC(=O)Cn2c(=O)n(-c3ccccc3)c(=O)c3c4c(sc32)CCCC4)c(OC)c1	-7%	1%
Cc1cc(OCC(=O)NC(C)C)c2c(C)c(C)c(=O)oc2c1	2%	3%
O=c1c2c(-c3ccccc3)ccnc2[nH]n1-c1ccccc1	36%[activator]	11%
CCN(C(=O)Cn1c(=O)n(Cc2ccccc2)c(=O)c2c1c1cc(OC)ccc1n2C)c1ccccc1	-8%	-8%
COc1ccc(OCCN(C)C(=O)c2cn(C)c3ccccc23)cc1	166%[activator]	61%[activator]
CSc1nnc2c(n1)OC(c1cccc(O)c1Cl)Nc1ccccc1-2 (centres undefined)	66%[activator]	0%
O=[N+]([O-])c1ccc(/C=N/NC(=S)Nc2ccccc2)cc1	0%&176%	25%&5%

Three entries from above, ordered by length of the SMILES, largest number first.
SMILES	2A firefly	StopGo RLuc
O=[N+]([O-])c1ccc(/C=N/NC(=S)Nc2ccccc2)cc1	0%&176%	25%&5%
COc1ccc(OCCN(C)C(=O)c2cn(C)c3ccccc23)cc1	166%[activator]	61%[activator]
CCOC(=O)C1=C(C)Nc2ncnn2C1c1ccc(O)cc1 (centres undefined)	0%	3%

Following part.
SMILES	2A firefly	StopGo RLuc
CC(Sc1nc(CN2CCOCC2)nc2ccccc12)C(=O)c1ccccc1 (centres undefined)	3%	-4%
O=C(Cn1nc2c(cc1=O)CCCC2)NCc1ccccc1Cl	41%[activator]	-8%
Cc1ccc(CCNC(=O)c2ccc(CSc3nc4ccncc4n3Cc3ccc(F)cc3)cc2)cc1	-8%	10%
CCOc1ccc([C@H]2C3=C(C[C@H](c4ccc(OC)c(OC)c4)CC3=O)Nc3[nH][nH]c(=O)c32)cc1	20%	5%
CN(Cc1cccs1)C(=O)c1cc2ccccc2[nH]1	0%	50%[activator]
CC(COc1ccc(F)cc1)CN1CCC(C(O)(c2ccccc2)c2ccccc2)CC1 (centres undefined)	-9%	-10%
CC1CCN(S(=O)(=O)c2ccc3c(ccc(=O)n3CC(=O)NCc3ccc(Cl)cc3)c2)CC1	u	-10%
Cc1ccc(C(=O)Nc2ccc3c(c2)N(C)C(=O)c2ccccc2S3)cc1F	u	u
Cc1ccc(C)c(NC(=O)c2cc3c(cc2C)OCCCO3)c1	51%[activator]	2%
Cc1ccc(N(Cc2nc3nc(C)cc(=O)n3[nH]2)C(=O)c2ccccc2Cl)cc1	22%	0%
Cc1ccc(C2C(C(=O)c3cccs3)=C(O)C(=O)N2CCc2ccccc2)cc1 (centres undefined)	38%[activator]	12%
N#Cc1ccc(COC(=O)c2ccccc2SCC2CCCO2)cc1 (centres undefined)	4%	33%[activator]
Cc1nc(-c2c(Cl)cccc2Cl)sc1C(=O)N1CCCC(C(=O)O)C1 (centres undefined)	0%	28%
CC(C)CCOc1ccc(Cn2c(=O)sc3ccccc32)cc1	-1%	4%
Cc1ccc(CN2CCCC2)cc1	22%	6%
COc1ccc(OC)c(NC(=O)c2cc3c(OC)c(OC)c(OC)cc3[nH]2)c1	0%	32%[activator]
CC(C)(C)c1ccc(NC(=O)C2CCCN(c3cnccn3)C2)cc1 (centres undefined)	34%[activator]	6%
COc1cc(Cl)cc2cc(C(=O)N3CCOCC3)c(=O)oc12	0%	-9%
Cc1ccc(NC(=O)CN(c2ccnn2C(C)C)S(=O)(=O)c2ccccc2)cc1	2%	142%[activator]
N#C/C(=C/c1ccc(OC(F)F)cc1)C(=O)c1c[nH]c2cc(F)ccc12	-7%	1%
CCC(CC)C(=O)Nc1ccc(OC)c2ncccc12	0%	-6%
O=C(NCc1cccn1Cc1cccc(F)c1)NC12CC3CC(CC(C3)C1)C2	-12%	7%
c1ccc2c3c(ccc2c1)-c1cccc2cccc(c12)O3	184%[activator]	-5%
COC(=O)c1cc(NC(=O)c2ccc(OC(F)F)cc2)c(F)cc1F	65%[activator]	-11%
COc1cc(/C=C(/C#N)c2nc3ccccc3[nH]2)ccc1OCCC(C)C	130%[activator]	14%
Cc1cc(=O)oc2c(C)c(OCC(=O)NCc3ccc(S(N)(=O)=O)cc3)ccc12	-4%	-1%
COc1ccc(CNC(=O)c2cc3c(-c4ccccc4F)nn(C)c3s2)c(OC)c1	u	u
Cc1ccc(NC(=O)Nc2nnc(SCC(=O)N3CCCCC3)s2)cc1	-20%	-12%
O=C(NNC(=O)C1CCCCC1)c1ccc(Cl)cc1	144%[activator]	20%
CCn1nc(C(=O)OCC(=O)N(C)Cc2ccco2)c2ccccc2c1=O	-6%	-12%
Cn1cc(S(=O)(=O)N2CCCC(C(=O)Nc3ccn(Cc4ccc(Cl)c(Cl)c4)n3)C2)cn1 (centres undefined)	u	u
Cc1oc(-c2cccs2)nc1CC(=O)N1CCOCC1	-12%	52%[activator]
CCOC(=O)C1CCC(CN(Cc2ccc(OC)cc2)S(=O)(=O)c2ccc(F)c(C(=O)Nc3cc(Cl)ccc3OC)c2)CC1 (centres undefined)	-7%	-6%
CC(=O)C1C(=O)CC(C)(O)C(C(C)=O)C1c1ccc(O)cc1 (centres undefined)	8%	5%
Cc1nc2ccc(Cl)cc2cc1C(=O)NC(C)C	2%	-5%
COC(=O)c1cc(/C=C(/C#N)c2nc3ccccc3[nH]2)oc1C	119%[activator]	67%[activator]
COc1ccc(CNC(=O)c2cccn2-c2nnc(N3CCCCC3)s2)c(OC)c1	-7%	69%[activator]
Cc1nc(CSc2nccc(C(F)(F)F)n2)cs1	20%	3%
COc1ccc(C2Nc3ccccc3-c3cc(C)nn32)cc1OC (centres undefined)	2%	-18%
COc1ccc(OC)c(NC(=O)Cc2c(C)c3ccc(OC)c(C)c3oc2=O)c1	-8%	-6%
COC(=O)CN1C(=O)CSc2ccc(S(=O)(=O)Nc3cc(C)ccc3C)cc21	-15%&-27%	97%&131%[activator]
CCCCCCCCCCCCS(=O)CCC(=O)O (centres undefined)	12%	4%[1.06 µM]
CC(NC(=O)C1CCCCC1)c1ccc(C(F)(F)F)cc1 (centres undefined)	-4%	-6%
COC(=O)c1cc(OC(=O)/C=C/c2ccc3ccccc3n2)cc(C(=O)OC)c1	5%	-12%[1.06 µM]
COc1cccc(/C=C(/C#N)c2ccccn2)c1OC(F)F	0%	-6%
COc1cccc(CNC(=O)c2ccc(C)cc2)c1	64%[activator]	33%[activator]
CCOC(=O)C1CCCN(C(=O)Cn2ncn3c(cc4sc(CC)cc43)c2=O)C1 (centres undefined)	-13%	-15%
COc1cccc(Nc2sc(C(=O)c3ccc(Cl)cc3)c(N)c2C(=O)NCc2ccc(C)cc2)c1	15%	-4%
Cc1nc(-c2ccccc2)sc1-c1ccc(SCC(=O)NCc2ccc(F)cc2)nn1	-8%	-5%
N#Cc1nc(-c2ccc(S(=O)(=O)N3CCOCC3)cc2)oc1NCCCN1CCOCC1	-2%	10%
Cc1ccc(C2=CC(c3ccc(Cl)cc3)n3nc(-c4ccc(C)cc4)nc3N2)cc1 (centres undefined)	5%	u
CC(=O)Nc1ccc(C(=O)CSc2ccccc2Cl)cc1	166%[activator]	33%
CCC(C)C(NC(=O)NCc1ccc(C)cc1)C(=O)O (centres undefined)	3%	1%

Seven of the compounds above, with two lines to a compound:
Values run as follows: 2A firefly | StopGo RLuc
> COc1ccc(C2Nc3ccccc3-c3cc(C)nn32)cc1OC (centres undefined)
    2% | -18%
> COc1ccc(OC)c(NC(=O)Cc2c(C)c3ccc(OC)c(C)c3oc2=O)c1
    -8% | -6%
> COC(=O)CN1C(=O)CSc2ccc(S(=O)(=O)Nc3cc(C)ccc3C)cc21
    -15%&-27% | 97%&131%[activator]
> CCCCCCCCCCCCS(=O)CCC(=O)O (centres undefined)
    12% | 4%[1.06 µM]
> CC(NC(=O)C1CCCCC1)c1ccc(C(F)(F)F)cc1 (centres undefined)
    -4% | -6%
> COC(=O)c1cc(OC(=O)/C=C/c2ccc3ccccc3n2)cc(C(=O)OC)c1
    5% | -12%[1.06 µM]
> COc1cccc(/C=C(/C#N)c2ccccn2)c1OC(F)F
    0% | -6%
